gsp agonist: agonists of gsp mutant (McCune-Albright syndrome); gsp mutant cells, cAMP HTRF, 30 min; control for the full effect not named in the record; Potency, µM (titrated, usually from 76.9 µM), for the others: at the highest dose activation (cAMP increase), hits mostly activators; 340,000 tested, 0.13% active; AID 624287; active = well fitted activation curve with a large enough effect; inconclusive = small, poorly fitted or top-dose-only effect, or another doubt; inactive = no such curve, though single readings can be large or run the other way; cell line not stated here;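 note: phosphodiesterase inhibitor Ro 20-1724 added with compounds to block cAMP breakdown; potency is the fitted concentration of half-maximal effect; nearly all actives have a fitted effect of over 60% in size; about a fifth of the inactives were tested at one dose only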
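Cells in DMEM/10% FBS with G418 were pretreated with compounds in DMSO plus […] (300 uM stock) for 30 min at 37C. cAMP was measured by HTRF (cAMP-d2 plus anti-cAMP antibody-K) after 30 min at room temperature.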
gsp antag: antagonizes gsp, the McCune-Albright syndrome mutation; Potency, µM (top dose mostly 76.9 µM), for the others: top-dose activity change, negative = inhibition, hits mostly inhibitors; gsp-mutant cells, cAMP HTRF, 30 min; control for the full effect not named in the record; AID 624288; 340,000 tested, 0.4% active; active = falling curve of any shape with a large fitted effect; inconclusive = falling curve, mostly with a smaller effect; inactive = flat or rising curve; cell line not stated here;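 note: intracellular cAMP measured with PDE inhibitor Ro 20-1724 present during compound exposure; potency is the fitted concentration of half-maximal effect; % is set by controls: 0 for no effect and ±100 for the full control effect; nearly all actives have a fitted effect of over 65% in size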
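G418-selected cells were plated in DMEM/10% FBS for 16-24 h at 37C, then treated with compounds plus the PDE inhibitor […] (300 uM solution added) for 30 min at 37C. Intracellular cAMP was measured by HTRF after 30 min lysis at room temperature.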
Menin-MLL FL inh: inhibitors of human menin-MLL interaction, wild-type MLL peptide; Fluorescence polarization, fluorescein-MLL peptide displacement from menin; 290,000 tested, under 10 active; FP activity change, % at 61.4 µM; inconclusive = falling polarisation curve, or a change in total fluorescence; inactive = total fluorescence flat and polarisation flat or rising; no compound was filed as active; the % refers to the polarisation; negative = inhibition;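 note: % of control where 0% means no effect; inhibitors lower the polarisation; unlabelled MLL peptide was the positive control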
TRPML1 ag: activates the human TRPML1 channel | Q9GZU1 | 410,000 tested, 0.12% active | activation, % (test concentration not listed) | TRPML1-expressing cells, Ca2+ dye fluorescence, FDSS; host cell line not named in the record; reference of the full effect not given here; in the data active = activation above about 50%; inconclusive = about 30% to 50%; inactive = below about 30%; note: 0% is about no effect; the text of the record puts the active cut at 80%
Target sequence (Q9GZU1 whole entry, looked up): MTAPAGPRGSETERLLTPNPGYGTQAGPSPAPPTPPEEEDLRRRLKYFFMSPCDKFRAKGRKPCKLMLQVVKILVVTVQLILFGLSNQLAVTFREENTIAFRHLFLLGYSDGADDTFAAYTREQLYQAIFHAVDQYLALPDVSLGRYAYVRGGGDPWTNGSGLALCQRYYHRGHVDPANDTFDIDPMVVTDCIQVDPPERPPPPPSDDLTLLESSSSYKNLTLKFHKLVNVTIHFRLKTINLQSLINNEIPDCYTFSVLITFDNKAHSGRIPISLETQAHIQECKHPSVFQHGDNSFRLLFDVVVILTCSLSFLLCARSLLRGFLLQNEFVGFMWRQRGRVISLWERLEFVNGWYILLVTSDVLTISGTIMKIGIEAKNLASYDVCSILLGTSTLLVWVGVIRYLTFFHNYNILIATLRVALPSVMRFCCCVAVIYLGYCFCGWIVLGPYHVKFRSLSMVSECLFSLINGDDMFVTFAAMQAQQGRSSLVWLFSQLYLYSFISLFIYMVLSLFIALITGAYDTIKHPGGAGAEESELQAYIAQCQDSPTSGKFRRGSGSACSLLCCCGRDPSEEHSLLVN
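Calcium fluorescence on an FDSS kinetic reader gave the read-out. Tet-induced TRPML1-DL cells were plated overnight, dye-loaded (Ca8 with quencher, 45-90 min, room temperature, dark), then read 110 s after compound addition, and again 110 s after 4uM final 54-4 (EC80).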
TRPML1 blocker: human mucolipin-1 channel inhibition; activity change, negative = inhibition, % (concentration not given with the values); TRPML1-inducible cells, Ca2+ dye fluorescence, FDSS; hits give low values; inhibition of EC80 agonist-evoked calcium signal; Q9GZU1; 390,000 tested, 0.02% active; AID 624415; in the data active means activity change below about -50%; inconclusive means about -30% to -50%; inactive means above about -30%;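 note: stimulus is agonist 54-4 at its EC80 concentration; % is set by controls: 0 for no effect and ±100 for the full control effect; compound concentration not given in the record; the text of the record puts the active cut at -80%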
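Calcium fluorescence in TRPML1-DL cells induced overnight with Tet: a 110 s read after compound pin addition, then a 110 s antagonist read after challenge with 54-4 at 4 uM final (EC80).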
ClpP mod: qHTS Assay for Activators of ClpP; 340,000 tested, 1.9% active; purified B. subtilis ClpP, FRET peptide cleavage, 20 min; ATP-dependent Clp protease proteolytic subunit (Bacillus subtilis (strain 168)), P80244; Potency, µM (series often up to 57.5 µM), without a hit: at the top dose activity change, negative = active; active = well fitted falling curve with a large enough effect; inconclusive = small, poorly fitted or top-dose-only effect; inactive = no such curve, though single readings can be large or run the other way; note: potency is the fitted concentration of half-maximal effect; the source files actives as falling curves though it sought activators and does not explain the sign; nearly all actives have a fitted effect of over 65% in size; many hits overshoot -100%
Target sequence (P80244 whole entry, looked up): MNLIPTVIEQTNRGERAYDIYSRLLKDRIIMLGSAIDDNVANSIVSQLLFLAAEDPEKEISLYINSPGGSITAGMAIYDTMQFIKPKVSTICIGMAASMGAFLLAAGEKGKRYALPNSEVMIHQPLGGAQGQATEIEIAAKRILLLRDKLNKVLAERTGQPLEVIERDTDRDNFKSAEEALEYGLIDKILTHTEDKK
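Buffer: 100 mM Tris/HCl pH8, 100 mM KCl, 0.05% low protease BSA, 2.5% glycerol, 0.01% Tween-20. ClpP 10 microg/mL final; 20 min RT; delta FRET normalized to ADEP and DMSO controls.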
Active calls of the source: *; ? = inconclusive; / = no result given; [ ] = remark or other dose.

SMILES	gsp agonist	gsp antag	Menin-MLL FL inh	TRPML1 ag	TRPML1 blocker	ClpP mod
COc1cc(OC)cc(-c2oc(=O)c3cc(OC)c(OC)cc3c2C#CCCO)c1	?	-1%	/	0.0	-4	4.1%
CCOC(=O)c1sc(NC(=O)CSc2nnc(Cc3ccccc3)o2)c(C#N)c1C	6%	-9%	17	-0.2	2	-0.6%
CCOC(=O)NC(=O)COC(=O)c1cccc2ccccc12	-7%[15.4 µM]	11%	-3.6	-0.9	-7	/
Cc1ccc(CCN2C(=O)CCC2(C)C(=O)NC2CCCC2)cc1 (configuration not stated)	-16%	2%	0.8	-0.4	6	-0.8%
Cc1ccccc1N(C(=O)c1ccccn1)C(C(=O)NCc1ccccc1)c1cccnc1 (configuration not stated)	16%[15.4 µM]	-3%	-0.5	-0.8	4	/
O=C(CSc1nnc(NC(=O)c2ccco2)s1)Nc1ccccc1Br	-5%[15.4 µM]	-3%	0.5	0.4	15	/
CC(/C=C/C1(O)C(C)CC(O)CC1(C)C)OC1OC(CO)C(O)C(O)C1O (configuration not stated)	-47%	5%	-1.5	0.0	-6	-4.2%
COc1ccc2[nH]cc(CC(=O)O)c2c1	/	3%	6.1	/	/	-30%
CCOc1ccc(OCC)c(NC(=O)CCS(=O)(=O)c2ccc(C)cc2)c1	-17%	-7%	-5.8	-0.3	-4	-0.3%
CC1CCCN(c2cc3c(cc2[N+](=O)[O-])C(=O)N(c2ccccc2)C3=O)C1 (configuration not stated)	?	-6%	2.1	1.2	-17	3.0%
Cc1ccc(C(=O)N2CC=C(c3ccccc3)CC2)o1	18%[15.4 µM]	-9%	/	1.4	-3	/
O=C(NC(N1CCOCC1)C(Cl)(Cl)Cl)c1ccc(Br)cc1 (configuration not stated)	-1%[15.4 µM]	1%	1.1	-1.8	0	-1.4%
O=C(CSc1nnc2c(n1)[nH]c1ccccc12)NC1CCCCC1	11%	0%	0.7	-0.1	1	/
Cc1ccc(NC(=O)CSc2nnc3[nH]c(=O)cc(-c4ccccc4)n23)cc1Cl	/	/	/	2.0	17	3.9%
COc1ccc(C2CC(=O)Oc3cc(C)c(Cl)cc32)cc1 (configuration not stated)	/	0%	-1.0[94.6 µM]	2.4	1	1.1%
CCC(Sc1nnc2c(n1)[nH]c1ccccc12)C(=O)Nc1ccccc1OC (configuration not stated)	/	/	/	1.0	-9	-0.3%
COc1ccccc1CNCC(=O)Nc1ccc(C#N)cc1	-2%[15.4 µM]	6%	/	-0.4	6	/
CN/N=C/c1ccc(C#N)cc1	7%	-1%	3.4	0.6	5	-0.4%
O=C(Nc1ccccc1)OCCCCOC(=O)Nc1ccccc1	18%[15.4 µM]	?	/	0.5	30	0.0%
COc1ccc(Cn2c(=O)c3oc4ccccc4c3n(Cc3ccc(Cl)cc3)c2=O)cc1	/	/	/	2.4	-6	-12%
CCOC(=O)C1=C(C)NC(C)=C(C(=O)OCC)C1c1ccc(OC)cc1	-34%[inhibitor]	7%	3.1	1.1	5	-24%
CN(C)C(CNC(=O)c1ccc(S(=O)(=O)N(C)C)cc1)Cc1ccccc1 (configuration not stated)	-12%[15.4 µM]	17%	-3.8	0.9	25	/
O=C(Nc1ccccc1C(=O)NCCN1CCOCC1)c1ccc(Cl)cc1Cl	?	2%	-0.2	0.7	3	-0.6%
COC(=O)c1ccc(COC(=O)C23CC4CC(CC(O)(C4)C2)C3)o1	4%	-3%	0.5	-1.0	0	0.7%
Cc1ccc(NC(=O)COC(=O)Cc2ccsc2)c(C)c1	-1%[15.4 µM]	2%	-4.4	0.6	4	/
CC(=O)c1ccc(NC(=O)C(C)OC(=O)C2CCN(c3ccc(C(F)(F)F)cn3)CC2)cc1 (configuration not stated)	-25%	-13%	/	0.3	-4	-5.1%
CN1C(=O)c2ccccc2C(O)c2ccccc21 (configuration not stated)	?	4%	/	0.1	13	/
CCN(CC)c1c([N+](=O)[O-])c(=O)sc2ccccc12	-1%	4%	-6.7	-0.3	8	-0.4%
CCOCCCNC(=O)CN1CCN(Cc2ccccc2C)C1=O	4%	4%	1.4	-0.8	17	1.3%
CC1CN(C(=O)CCC(=O)NC2CCN(Cc3ccccc3)CC2)c2ccccc2O1 (configuration not stated)	20%	8%	0.1	0.2	15	1.1%
CC/C(C)=N/Nc1nc2sc3c(c2c(=O)[nH]1)CC(C)(C)OC3	16%	-8%	?	2.2	-11	-18%
CC(C)Oc1cccc(C(=O)NC(=S)NCc2cccnc2)c1	-3%	?	2.8	6.5	37	-1.1%
O=C(Cc1c(Sc2ccccc2)c2ccccc2n1Cc1ccccc1)NCCO	-4%	-1%	/	1.2	-4	-0.4%
Cc1ccc(-n2c(=O)[nH]c3sc4c(c3c2=O)CCCC4)cc1	/	/	/	-1.0	10	-0.1%
Cc1cc(C)nc(SCc2nnc(SCC(=O)Nc3ncc(C)s3)n2Cc2ccco2)n1	?	-8%	-1.8	3.7	-1	-3.7%
C[C@H](CO)N1C[C@H](C)[C@@H](CN(C)C(=O)Nc2ccccc2)Oc2c(cccc2N(C)C)C1=O	/	-1%	/	-0.7	-11	-0.6%
S=C(NCCc1ccccn1)NC1CC2CCC1C2 (configuration not stated)	-6%[15.4 µM]	6%	1.5	0.3	10	0.9%
CC1CCc2c(sc3nnn(Cc4ccccc4)c(=O)c23)C1 (configuration not stated)	/	/	/	-0.8	-13	-2.4%
O=C(CSc1ccc2c(c1)OCCO2)Nc1cccnc1Cl	0%	-9%	-3.0	0.9	26	-0.1%
O=C1OCCC1Sc1nnc(-c2ccc(Cl)cc2)n1Cc1ccccc1 (configuration not stated)	5%[15.4 µM]	-1%	3.8	0.0	-4	-0.6%
O=C(CSc1c2c(nc3cc(Cl)ccc13)CCCC2)N1CCN(c2ccccc2)CC1	/	/	/	1.2	59	-0.3%
Cc1cc([N+](=O)[O-])ccc1NC(=O)c1ccco1	0%[15.4 µM]	9%	0.7	1.2	18	/
Cc1cc(NC(=O)CCS(=O)(=O)c2cc(Br)cc3c2N(C(=O)C2CC2)CC3)ccc1Br	/	/	/	0.5	8	-1.7%
O=C(NCc1cccnc1)c1cnc2ccccc2n1	9%[15.4 µM]	11%	2.6	1.9	75	/
O=C(NC1CC1)c1cc2cc(Br)ccc2s1	-3%	1%	-0.3	0.2	4	-1.8%

Among those listed so far, these contain a nitro group on carbon.
SMILES	gsp agonist	gsp antag	Menin-MLL FL inh	TRPML1 ag	TRPML1 blocker	ClpP mod
CC1CCCN(c2cc3c(cc2[N+](=O)[O-])C(=O)N(c2ccccc2)C3=O)C1 (configuration not stated)	?	-6%	2.1	1.2	-17	3.0%
CCN(CC)c1c([N+](=O)[O-])c(=O)sc2ccccc12	-1%	4%	-6.7	-0.3	8	-0.4%
Cc1cc([N+](=O)[O-])ccc1NC(=O)c1ccco1	0%[15.4 µM]	9%	0.7	1.2	18	/

More records.
SMILES	gsp agonist	gsp antag	Menin-MLL FL inh	TRPML1 ag	TRPML1 blocker	ClpP mod
CC1CCCN(S(=O)(=O)c2ccc3oc(=O)ccc3c2)C1 (configuration not stated)	-28%	16%	/	1.2	30	0.2%
CN(C)CCC1CCN(c2cc(C#N)c(C#N)cc2[N+](=O)[O-])CC1	5%[15.4 µM]	5%	1.5	0.1	0	/
CC(C)CNS(=O)(=O)c1ccc(CCC(=O)NC2CCCC2)cc1	5%	1%	-0.6	-0.1	?	1.5%
COc1cc(OC)cc(C(=O)NCCCCNC(=O)c2cc(OC)cc(OC)c2)c1	-4%[15.4 µM]	-7%	/	0.6	-8	/
CCC(C)(C(=O)NC1CCCC1)N(C(=O)CC1NC(=O)NC1=O)c1c(C)n(C)n(-c2ccccc2)c1=O (configuration not stated)	-1%[15.4 µM]	15%	-1.7	-0.5	-8	/
COc1ccc(CCNC(=O)CS(=O)Cc2nc(-c3ccc(C)cc3)oc2C)c(OC)c1 (configuration not stated)	/	/	/	0.0	-10	-7.6%
O=C(NCC(c1ccco1)N1CCCCC1)c1ccc(COc2ccccc2)cc1 (configuration not stated)	-81%[inhibitor]	6%	/	-0.6	-22	-0.6%
COc1cccc(OCCNS(=O)(=O)c2ccccc2[N+](=O)[O-])c1	-4%	-6%	/	1.8	-3	1.0%
CCOC(=O)C1C(=O)C(=O)N(Cc2ccccc2)C1C(=O)OCC (configuration not stated)	40%	-6%	/	-1.0	1	/
CC(C)OCCCn1c(=O)c2ccccc2n2c(CCC(=O)NCc3ccccn3)nnc12	?	4%	/	0.5	0	-21%
CN(C)c1ccc(C(=O)N2CCCC(N3CCN(Cc4ccc5c(c4)OCO5)CC3)C2)cc1 (configuration not stated)	1%	-8%	/	1.6	1	-2.2%
Cc1ccc(S(=O)(=O)Nc2nnc(C3CCCCC3)s2)cc1	18%	-13%	-7.0	-0.5	-4	/
C=CCOC(=O)C1=C[C@H](c2ccc3c(c2)OCO3)C[C@H](OCCCCO)O1	-20%	-1%	/	1.9	15	21%
N#Cc1nc(-c2ccc(F)cc2)oc1N1CCC(C(N)=O)CC1	19%	1%	-2.4	0.4	12	3.6%
CCOC(=O)c1c(NC(=O)Cc2ccccc2)sc2c1CCN(CC)C2	?	9%	3.6	0.3	-4	-7.1%
Nn1c(SCC(=O)Nc2ccc3c(c2)OCCO3)nncc1=O	-1%	-4%	-1.0	-0.5	0	2.8%
CCOC(=O)N1CCN(C(=O)COC(=O)CSc2ccc([N+](=O)[O-])cc2)CC1	16%[15.4 µM]	3%	/	2.2	6	-0.8%
COc1ccc(CCNC(=O)Cn2nnc(-c3ccc(N(C)C)cc3)n2)cc1OC	?	-27%	1.8	2.0	1	-22%
Cc1ccc(-c2cn3cccc(C)c3n2)cc1NS(=O)(=O)c1ccccc1	/	/	/	0.1	34	-5.1%
O=C(CN1CCN(S(=O)(=O)c2ccc(Cl)s2)CC1)N1CCOCC1	-9%[15.4 µM]	11%	1.2	-0.1	5	0.2%
CNC(=S)N(CCc1c(C)[nH]c2ccc(C)cc12)Cc1cccnc1	-9%	-4%	-3.4	-1.1	7	1.2%
CCOC(=O)C1=C(CS(=O)(=O)c2cccc(C(F)(F)F)c2)NC(=O)NC1c1cccc(OC)c1 (configuration not stated)	/	/	/	-1.1	12	1.5%
C#CCN1C(=O)C(O)(c2c(C)[nH]c3ccccc23)c2ccccc21 (configuration not stated)	-84%[inhibitor]	1%	5.5	0.2	-12	/
CCN(CC)CCCNC(=S)N1CCN(c2nc(-c3ccc(F)cc3)cs2)CC1	2%[15.4 µM]	11%	4.2	-0.2	-8	-24%
CC(C)C1C(=O)N(Cc2cn(CCC3OCCO3)nn2)CCS(=O)(=O)N1Cc1ccc(-c2ccc(F)cc2Cl)cc1 (configuration not stated)	/	/	/	0.2	31	1.3%

Screening data from PubChem BioAssay.
